Screens as filed in PubChem BioAssay.
HNF4A DNA FP: change in binding of human HNF4 alpha to DNA; activity change, % at 10 µM; HNF4a-FITC DNA binding, fluorescence polarization, 1 h; hit rate 0.3% among 360,000; P41235; AID 1224865; in the data active = activity change above about 30%, passing the limit was not always enough;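 also: controls were the assay level and a saturating level of protein; the project sought stronger binding though the title names inhibitors; some compounds called inactive have numbers as strong as hits; positive values seem to mean higher polarization but the record does not say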
Target sequence (P41235 whole entry, looked up): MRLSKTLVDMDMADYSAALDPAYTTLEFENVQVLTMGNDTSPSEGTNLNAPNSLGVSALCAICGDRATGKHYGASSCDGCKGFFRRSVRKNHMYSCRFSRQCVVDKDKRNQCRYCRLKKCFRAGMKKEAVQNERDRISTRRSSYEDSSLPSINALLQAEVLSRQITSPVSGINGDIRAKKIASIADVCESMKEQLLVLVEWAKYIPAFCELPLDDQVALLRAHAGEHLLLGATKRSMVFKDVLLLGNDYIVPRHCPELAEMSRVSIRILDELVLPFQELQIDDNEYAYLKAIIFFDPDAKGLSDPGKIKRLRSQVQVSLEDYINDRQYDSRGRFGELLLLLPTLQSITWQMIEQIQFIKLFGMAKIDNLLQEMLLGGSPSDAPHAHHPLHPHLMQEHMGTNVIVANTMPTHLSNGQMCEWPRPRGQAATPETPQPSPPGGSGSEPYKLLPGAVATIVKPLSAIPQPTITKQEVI
FGF22 binding: binders of recombinant human FGF22 by thermal shift; hit rate 1.5% among 340,000; calls only at 9.99 µM; AID 651658; SYPRO orange fluorescence; percent of sucrose octasulfate shift, DMSO zero; Q9HCT0;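 active = melting point raised past a set limit in the mean and every replicate; inconclusive = no clear call; three in four hits are not shown here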
Target sequence (Q9HCT0 whole entry, looked up): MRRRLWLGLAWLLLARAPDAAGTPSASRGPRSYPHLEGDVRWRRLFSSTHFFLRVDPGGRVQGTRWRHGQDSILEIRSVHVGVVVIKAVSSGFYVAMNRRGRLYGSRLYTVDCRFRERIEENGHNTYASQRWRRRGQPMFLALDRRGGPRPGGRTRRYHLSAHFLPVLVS
rRNA inh HTS: inhibitors of bacterial rRNA selective over humanized ribosomes; E. coli WT GFP vs humanized-ribosome RFP mutants, fluorescence, 24 h; active compounds read low; DMSO median 0, no signal -100; hit rate 1.6% among 350,000; AID 720706; GFP signal change (wild-type ribosome), % (test concentration not listed);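 active = significant combined selectivity score with lowered wild-type GFP, culture density cut under 30%, mutant RFP and density less affected; inactive = any of these conditions unmet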; also: one replicate is shown; some compounds called inactive have numbers as strong as hits
E coli growth: blocks Escherichia coli growth; OD600, 23 h; active compounds read low; OD600 absorbance (concentration not given with the values); hit rate 0.21% among 330,000; AID 1053175;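 active = OD600 absorbance below the run mean of sample wells minus 3.6 SD, in any replicate, cut at about 0.56 in these data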;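 also: stock transfer was 300 nL into about 60 µL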
ALR inh: human ALR oxidase inhibition via reduced H2O2 | hit rate 3.8% among 290,000 | inhibition, % (test concentration not listed) | purified ALR, DTT oxidation, H2O2 HRP-luminol luminescence;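 active = mean and each replicate at 75% or more; inconclusive = only one of the two met; inactive = neither met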;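 also: stock transfer was 7.5 nL into about 7.5 µL; 0% = neutral wells and 100% = wells with inactivated enzyme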
Target sequence (P55789 whole entry, looked up): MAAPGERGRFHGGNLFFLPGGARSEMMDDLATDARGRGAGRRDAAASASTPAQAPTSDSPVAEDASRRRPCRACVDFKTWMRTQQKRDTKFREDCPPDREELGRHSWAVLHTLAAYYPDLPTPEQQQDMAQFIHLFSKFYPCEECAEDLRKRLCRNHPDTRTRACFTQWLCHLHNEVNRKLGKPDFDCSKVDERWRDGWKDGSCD
MLL AF4-AF9 inh: blocks AF4 peptide binding to human AF9. P42568. AlphaScreen, biotin-AF4 peptide binding to FLAG-AF9. inhibition, % at 10 µM. hit rate 0.47% among 350,000. AID 651704;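 active = every replicate reaching a set inhibition limit, whatever the replicate mean, cut at about 25% in these data; inconclusive = mean inhibition reaches that limit but some replicates miss it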;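 also: 0% = plate neutral control median and 100% = total signal loss; the record names both 10 and 1 µM as test concentration; the first replicate is given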
Vif TR-FRET: inhibitors of Vif binding to APOBEC3G peptide, primary screen, biochemical, TR-FRET, GST-Vif 1-94, biotin-A3G peptide, dose response retest (AID 1117319) | TR-FRET GST-Vif / biotin-A3G peptide binding; higher % means a stronger effect; test concentration not given here; strong numbers were not always called active | inhibition, %; hits with a dose series show IC50 in µM | hit rate 0.57% among 260,000;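 active = above the screen mean plus three standard deviations and confirmed in dose response; inconclusive = results disagree or hit not tested in dose response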;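 also: Vif residues 1-94 fused to GST binding biotinylated APOBEC3G peptide 110-148; 0% = full assay without inhibitor and 100% = GST in place of GST-Vif; retest series ran down from 100 µM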
rRNA inh HTS OD600: recorded beside rRNA inh HTS, whose call it bears; OD600 change, %; measured here: OD600 growth;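 optical density of the mix in the first replicate; 0 = DMSO median and -100 = no signal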
rRNA inh HTS RFP: second read-out of rRNA inh HTS, no call of its own (marks repeat the call); RFP signal change, %; measured here: RFP humanized mutant strains;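 first replicate; 0 = DMSO median and -100 = no signal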
The depositor's hits bear a star.

Screening CC(C)c1ccc(S(=O)(=O)N2CCN(C(=O)Cc3ccsc3)CC2)cc1 returned HNF4A DNA FP 0.8, rRNA inh HTS -20, E coli growth 0.69, MLL AF4-AF9 inh 11, rRNA inh HTS OD600 -37 and rRNA inh HTS RFP -6.1.
For Cc1c(CCC(C)C)c(=O)n2c([nH]c3ccccc32)c1C#N the results were HNF4A DNA FP -1.2, ALR inh -3 and Vif TR-FRET 3%.
For O=C(Cc1cccs1)Nc1nc(-c2ccccc2)cs1 the results were HNF4A DNA FP 4.0, E coli growth 0.66, ALR inh -5 and Vif TR-FRET 2%.
Screening O=C(NCc1ccccc1Cl)c1ccc2nc([C@@H]3O[C@H](CO)[C@@H](O)[C@H]3O)[nH]c2c1 returned HNF4A DNA FP -0.4, FGF22 binding inactive, rRNA inh HTS 0, MLL AF4-AF9 inh -3.4, rRNA inh HTS OD600 -2 and rRNA inh HTS RFP 0.8.
Screening c1ccc(Cn2c(-c3ccco3)nc3nc4ccccc4nc32)cc1 returned HNF4A DNA FP 4.4, E coli growth 0.66, ALR inh 64 and Vif TR-FRET inconclusive.
For C[C@H](CO)N1C[C@H](C)[C@H](CN(C)Cc2ccccc2)OCCCC[C@H](C)Oc2ccc(NS(=O)(=O)c3cccs3)cc2C1=O the results were FGF22 binding inactive, rRNA inh HTS 2, MLL AF4-AF9 inh 4.6, rRNA inh HTS OD600 -8 and rRNA inh HTS RFP 3.2.
COC(=O)c1ccc(S(=O)(=O)N2CCN(C)CC2)n1C was read as HNF4A DNA FP -3.7, FGF22 binding inactive, rRNA inh HTS 16, E coli growth 0.66, Vif TR-FRET -2%, rRNA inh HTS OD600 4 and rRNA inh HTS RFP -1.0.
Screening Cc1ccc(S(=O)(=O)c2nc(S(=O)(=O)c3ccc(C)cc3)c(N3CCN(CCO)CC3)s2)cc1 returned HNF4A DNA FP 4.0, FGF22 binding inactive, rRNA inh HTS -33, E coli growth 0.62, ALR inh -3, MLL AF4-AF9 inh 5.8, rRNA inh HTS OD600 -11 and rRNA inh HTS RFP -3.5.
CS(=O)(=O)Nc1ccc2c(c1)ncn2CCc1ccccc1 was read as HNF4A DNA FP -2.4, FGF22 binding inactive, rRNA inh HTS 0, E coli growth 0.68, ALR inh -4, MLL AF4-AF9 inh -0.6, Vif TR-FRET -3%, rRNA inh HTS OD600 7 and rRNA inh HTS RFP -4.7.
Screening Cc1nc(N2CCN(Cc3ccc(Cl)cc3)CC2)c2oc3ccccc3c2n1 returned HNF4A DNA FP 2.7, FGF22 binding inactive, rRNA inh HTS -22, E coli growth 0.69, ALR inh -4, MLL AF4-AF9 inh 1.1, Vif TR-FRET -1%, rRNA inh HTS OD600 -10 and rRNA inh HTS RFP 19.
`COc1ccc(S(=O)(=O)Nc2cccc3c2O[C@@H](CN(C)Cc2ccc(Oc4ccccc4)cc2)[C@@H](C)CN([C@H](C)CO)C3=O)cc1` gave FGF22 binding inactive, rRNA inh HTS 6, MLL AF4-AF9 inh 0.4, rRNA inh HTS OD600 4 and rRNA inh HTS RFP -0.5.
`Cc1nnc(N2C(=O)C(=O)/C(=C(\O)c3ccc4c(c3)CC(C)O4)C2c2ccccc2)s1` (stereo not drawn) gave HNF4A DNA FP -1.4, FGF22 binding inactive, rRNA inh HTS 4, ALR inh 21, MLL AF4-AF9 inh -1.5, rRNA inh HTS OD600 3 and rRNA inh HTS RFP -1.8.
Screening C[C@H](CO)N1C[C@H](C)[C@@H](CN(C)C(=O)Nc2ccc(F)cc2)OCCCC[C@H](C)Oc2ccc(NC(=O)CCCN(C)C)cc2C1=O returned FGF22 binding inactive, rRNA inh HTS 2, MLL AF4-AF9 inh 3.4, rRNA inh HTS OD600 6 and rRNA inh HTS RFP 1.7.
For CCCc1nn2c(=O)cc(COc3ccc(NC(=O)c4ccco4)cc3)nc2s1 the results were HNF4A DNA FP 0.6, FGF22 binding inactive, rRNA inh HTS 12, E coli growth 0.71, ALR inh -1, MLL AF4-AF9 inh 0.5, Vif TR-FRET 1%, rRNA inh HTS OD600 10 and rRNA inh HTS RFP 3.1.
For COc1cc(/C=C2/C(=O)ON=C2C)ccc1OCc1ccccc1F the results were HNF4A DNA FP -2.5, E coli growth 0.61, ALR inh -17 and Vif TR-FRET 6%.
`O=C(Cc1ccccc1[N+](=O)[O-])N1CCN(S(=O)(=O)c2ccccc2)CC1` gave HNF4A DNA FP 1.3, FGF22 binding inactive, rRNA inh HTS 1, E coli growth 0.72, ALR inh -4, MLL AF4-AF9 inh 1.2, rRNA inh HTS OD600 7 and rRNA inh HTS RFP 0.6.
Screening COc1ccc(C(=O)Nc2c(O)ccc3ccccc23)cc1OC returned HNF4A DNA FP -3.6, FGF22 binding inactive, rRNA inh HTS 10, E coli growth 0.71, ALR inh -23, MLL AF4-AF9 inh -1.1, rRNA inh HTS OD600 5 and rRNA inh HTS RFP 2.1.
For CSc1nc2ccc(NS(=O)(=O)c3ccc([N+](=O)[O-])cc3)cc2s1 the results were HNF4A DNA FP 2.3, FGF22 binding inactive, rRNA inh HTS -22*, E coli growth 0.68, ALR inh -14, Vif TR-FRET -2%, rRNA inh HTS OD600 -9.8* and rRNA inh HTS RFP 7.7*.
For C=CCn1c(SCCN2CCOCC2)nc2c1c(=O)[nH]c(=O)n2C the results were HNF4A DNA FP 1.0, E coli growth 0.69 and Vif TR-FRET -2%.
Screening NC(=O)C1CCN(Cc2nc3c(Br)cc(Br)cc3c(=O)[nH]2)CC1 returned HNF4A DNA FP 8.5, FGF22 binding inactive, rRNA inh HTS -7, E coli growth 0.65, MLL AF4-AF9 inh -1.1, Vif TR-FRET -15%, rRNA inh HTS OD600 -12 and rRNA inh HTS RFP 1.7.

For reference, some entries already given.
For C=CCn1c(SCCN2CCOCC2)nc2c1c(=O)[nH]c(=O)n2C the results were HNF4A DNA FP 1.0, E coli growth 0.69 and Vif TR-FRET -2%.
Screening NC(=O)C1CCN(Cc2nc3c(Br)cc(Br)cc3c(=O)[nH]2)CC1 returned HNF4A DNA FP 8.5, FGF22 binding inactive, rRNA inh HTS -7, E coli growth 0.65, MLL AF4-AF9 inh -1.1, Vif TR-FRET -15%, rRNA inh HTS OD600 -12 and rRNA inh HTS RFP 1.7.

Other results follow:
Cn1c(Sc2ccc([N+](=O)[O-])cc2C(F)(F)F)nnc1-c1ccccc1 was read as HNF4A DNA FP -2.9, E coli growth 0.71, ALR inh -36 and Vif TR-FRET 2%.
`Cc1ccc(-c2cc(C(F)F)n3ncc(C(=O)N4CCN5CCCC5C4)c3n2)cc1` (stereo not drawn) gave HNF4A DNA FP 0.9, E coli growth 0.74, ALR inh 2 and Vif TR-FRET 32%.
Cc1nc2ccc(C(=O)N3c4ccccc4CC3C)cc2s1 (stereo not drawn) was read as HNF4A DNA FP 1.4, FGF22 binding inactive, rRNA inh HTS 4, E coli growth 0.64, ALR inh 3, MLL AF4-AF9 inh -0.5, Vif TR-FRET -3%, rRNA inh HTS OD600 -2 and rRNA inh HTS RFP 0.0.
`Cc1ccc(NC(=O)COC(=O)Cn2cnc3ccccc32)cc1S(=O)(=O)N(C)C` gave HNF4A DNA FP 0.1, E coli growth 0.65, ALR inh -3 and Vif TR-FRET -11%.
COc1ccc(N(CC(=O)NCc2ccc3c(c2)OCO3)S(=O)(=O)c2ccc(O)c(C(=O)O)c2)cc1 was read as HNF4A DNA FP 7.2, FGF22 binding inactive, rRNA inh HTS 0, E coli growth 0.71, MLL AF4-AF9 inh 2.8, rRNA inh HTS OD600 -10 and rRNA inh HTS RFP 5.6.
Screening CCCCCNC(=O)[C@@H]1CSC2c3ccccc3C(=O)N21 (stereo partly drawn) returned HNF4A DNA FP -2.8, FGF22 binding inactive, rRNA inh HTS -6, E coli growth 0.66, MLL AF4-AF9 inh -1.1, Vif TR-FRET -6%, rRNA inh HTS OD600 -2 and rRNA inh HTS RFP -1.4.
CCCOc1ccccc1/C=C1\SC(N)=NC1=O was read as HNF4A DNA FP 1.2, FGF22 binding inactive, rRNA inh HTS -5, E coli growth 0.71, ALR inh -6, MLL AF4-AF9 inh -2.9, Vif TR-FRET -1%, rRNA inh HTS OD600 -6 and rRNA inh HTS RFP -3.3.
`CN(C)S(=O)(=O)c1ccc(C(=O)Nc2ccc3nc(N4CCOCC4)sc3c2)cc1` gave HNF4A DNA FP 0.0, FGF22 binding inactive, E coli growth 0.64, ALR inh 9 and MLL AF4-AF9 inh 0.2.
Screening CCC(=O)N1C[C@H](C)[C@@H](OC)CN(C)C(=O)c2ccc(NC(=O)Nc3cccc(F)c3)cc2OC[C@@H]1C returned FGF22 binding inactive, rRNA inh HTS -2, MLL AF4-AF9 inh 3.6, rRNA inh HTS OD600 -8 and rRNA inh HTS RFP 1.3.
For OCCNCCCCOc1ccc(F)cc1 the results were HNF4A DNA FP -3.0, FGF22 binding inactive, rRNA inh HTS 3, E coli growth 0.7, MLL AF4-AF9 inh -41, Vif TR-FRET 4%, rRNA inh HTS OD600 0 and rRNA inh HTS RFP -6.4.
O=C(O)c1ccc(-n2nnnc2SCc2ccccc2Br)cc1 was read as HNF4A DNA FP -0.7, FGF22 binding inactive, rRNA inh HTS -20, E coli growth 0.68, ALR inh 1, MLL AF4-AF9 inh -1.0, Vif TR-FRET -2%, rRNA inh HTS OD600 -26 and rRNA inh HTS RFP -9.5.
Cc1nn(-c2cccc(C(F)(F)F)c2)c(=O)c2ccccc12 was read as HNF4A DNA FP -3.6, FGF22 binding inactive, rRNA inh HTS -5, E coli growth 0.66, ALR inh 6, MLL AF4-AF9 inh -1.3, Vif TR-FRET 0%, rRNA inh HTS OD600 2 and rRNA inh HTS RFP 1.0.
For Cn1c(=O)cc(OCC(=O)NC2CCCCC2)c2ccccc21 the results were HNF4A DNA FP 3.1, E coli growth 0.69, ALR inh 1 and Vif TR-FRET 3%.
Screening O=C(Cc1ccc(Cl)c(Cl)c1)N1CCOCC1 returned HNF4A DNA FP -0.5, FGF22 binding inactive, rRNA inh HTS 9, E coli growth 0.68, MLL AF4-AF9 inh 0.8, Vif TR-FRET -7%, rRNA inh HTS OD600 0 and rRNA inh HTS RFP -2.6.
For CCOC(=O)c1cnc2c(C(=O)OCC)cnn2c1N the results were HNF4A DNA FP 5.1, FGF22 binding inactive, rRNA inh HTS 10, E coli growth 0.68, ALR inh 1, MLL AF4-AF9 inh 2.7, Vif TR-FRET 5%, rRNA inh HTS OD600 7 and rRNA inh HTS RFP 0.5.
CCN1/C(=N\N)c2cccc3cccc1c23 was read as HNF4A DNA FP 57*, FGF22 binding inactive, rRNA inh HTS 3, ALR inh -12, MLL AF4-AF9 inh 8.3, rRNA inh HTS OD600 0 and rRNA inh HTS RFP 30.
CSCCC(NC(=O)CCC(=O)OCC(=O)[C@@]1(O)CCC2[C@@H]3CCC4=CC(=O)C=C[C@]4(C)C3[C@@H](O)C[C@@]21C)C(=O)O (stereo partly drawn) was read as HNF4A DNA FP 0.3, FGF22 binding inactive, rRNA inh HTS 5, E coli growth 0.65, ALR inh -13, MLL AF4-AF9 inh 0.0, Vif TR-FRET 14%, rRNA inh HTS OD600 15 and rRNA inh HTS RFP 1.9.
For C[C@H]1CCCCO[C@H](CN(C)C)[C@@H](C)CN([C@@H](C)CO)C(=O)c2cc(NC(=O)c3ccccc3)ccc2O1 the results were FGF22 binding inactive, rRNA inh HTS 7, MLL AF4-AF9 inh -21, rRNA inh HTS OD600 12 and rRNA inh HTS RFP 0.3.

Only part of the results is shown, so the mix of outcomes need not match the whole.
